# AmpC inh no det: inhibitors of E. coli AmpC beta-lactamase without detergent; Potency, µM (series often up to 28.7 µM), for inactives: top-dose activity change, negative = inhibition; AmpC nitrocefin hydrolysis, absorbance 480 nm, no detergent; potencies from a single point are estimates; hit rate 1.8% among 71,000; active = falling curve, for most hits resting on a single point; inconclusive = weak or doubtful change; inactive = flat or rising curve; note: % of control where 0% means no effect; about half of the hits show no inhibition at the top dose; a quarter of the inactives give rising signals
# Target sequence (P00811 whole entry, looked up): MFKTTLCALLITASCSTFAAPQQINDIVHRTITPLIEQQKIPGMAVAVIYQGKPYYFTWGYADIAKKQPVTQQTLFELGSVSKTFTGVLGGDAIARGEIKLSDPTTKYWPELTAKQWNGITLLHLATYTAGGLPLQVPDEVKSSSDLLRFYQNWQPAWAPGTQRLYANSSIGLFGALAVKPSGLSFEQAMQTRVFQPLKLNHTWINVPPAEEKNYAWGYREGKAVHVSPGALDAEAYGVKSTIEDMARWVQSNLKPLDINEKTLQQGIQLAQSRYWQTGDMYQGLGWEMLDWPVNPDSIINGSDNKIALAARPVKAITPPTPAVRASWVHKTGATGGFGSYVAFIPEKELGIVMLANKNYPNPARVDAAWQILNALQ
#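 Enzyme, pH 7.0 phosphate. Compound titrations were pre-incubated with AmpC for 15 min at room temperature before nitrocefin (stock 800 uM) addition; product formation was recorded at 480 nm every 20 s for 4 min.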
# An asterisk follows results filed as active; ? = inconclusive; [ ] = another dose, or the depositor's remark. Potency is the fitted concentration of half-maximal effect. Some of the compounds tested; the hit share may differ from the screen's.
SMILES,AmpC inh no det
O=C1CCCC2=C1C1(CCCC1)N=C(Nc1nc3ccccc3o1)N2,-8%
COc1cccc(-c2nc(CS(=O)CC(=O)NCCCOC(C)C)c(C)o2)c1 (stereo unspecified),58%
CCCS(=O)(=O)N1CCCC(C(=O)NCCc2ccc(OC)c(OC)c2)C1 (stereo unspecified),7%
COC(=O)C(C)Sc1nnc(Cc2cc(=O)[nH]c(=O)[nH]2)n1-c1ccc(Cl)cc1 (stereo unspecified),2%
O=C(O)C(O)(c1ccccc1)C1CCCC1 (stereo unspecified),-8%
CCOc1ccc(NCCC(=O)c2ccc3c(c2)OCO3)cc1,2%
O=C(Nc1cccc(Cl)c1)C1CCCN(S(=O)(=O)c2cnc[nH]2)C1 (stereo unspecified),-10%
CSc1nnnn1CCn1nnnc1SC,-7%
O=C(O)c1ccccc1C(=O)OCc1ccccc1,-5%
COc1ccc(N2C(=O)CC(Cc3ccccc3)C2=O)cc1 (stereo unspecified),0%
Clc1ccccc1C(Nc1cnccn1)Nc1cnccn1,-10%[5.75 µM]
Cc1cc(C)cc(-c2nnc(SCC(=O)NCc3cccs3)o2)c1,2%
CCCCOc1ccc(NC(=O)CN2CCN(C(=O)OCC)CC2)cc1,56%
O=C(NCc1ccccn1)c1ccc(Cl)cc1Cl,-6%
Cc1cc(NC(=O)c2cnn3cccnc23)n(-c2ccccc2)n1,6%
O=c1c2ccccc2oc2cc(O)c([C@@H]3COC[C@@H](CO)[C@@H](O)[C@@H](O)[C@H]3O)c(O)c12,-8%
C[C@@]12CCC[C@](C)(C(=O)O)[C@@H]1CCc1ccc(O)cc12,-13%
CCn1c(COc2ccccc2)nnc1SCC(=O)Nc1cc(OC)ccc1OC,73%
CC(=O)N1CCN(C(=O)CCc2c[nH]c3ccccc23)CC1,1%
CC(C)(C)OC(=O)N1CCOCCOCCN(C(=O)OC(C)(C)C)CCOCC1,88%
CCOC(=O)c1[nH]c(=O)[nH]c1COC(=O)c1cc2ccccc2o1,3%
CC1(C(=O)NCCc2c[nH]c3ccccc23)C=CCN1C(=O)c1ccccc1 (stereo unspecified),13%
CCCCN(C(=O)NC(=O)C1=C(N2CCOCC2)/C(=C/c2ccccc2)CC1)S(C)(=O)=O,90%
COC(=O)[C@@]1(Cc2ccc(F)cc2)[C@H]2c3cc(C(=O)N4CCCC4)n(CCc4ccc(OC)c(Br)c4)c3C[C@H]2CN1C(=O)c1ccccc1,88%
CCOC(=O)c1c(C)[nH]c(C(=O)COC(=O)c2cnc(C)cn2)c1C,28%
Cc1c(C(=O)OCC(=O)c2ccc3c(c2)OCCO3)oc2ccccc12,-19%
CCOC(=O)N1CCC(NC(=O)Cn2c3c(c(-c4ccccc4Cl)cc2=O)CCC3)CC1,106%
COC(=O)c1ccccc1NC(=O)c1cnn2c(C(F)F)cc(C3CC3)nc12,5%
CCOC(=O)c1nnn(-c2nonc2-n2cccc2)c1CN1CCC(C)CC1,11%
CC1(C)CC(=O)c2c(O)cc(O)cc2O1,-2%
CN1CCN(c2cc(=O)n(-c3ccc(Cl)cc3)c(=O)[nH]2)CC1,-2%
Oc1c(CN2CCOCC2)ccc(CN2CCOCC2)c1O,3%[5.75 µM]
COc1ccc(NC(=O)CSc2nnc(CN3CCOCC3)n2-c2ccccc2)cc1Cl,132%
Fc1ccc(-c2nn3c(C4COc5ccccc5O4)nnc3s2)cc1 (stereo unspecified),30%
O=C(NC1CCCc2ccccc21)C1CCN(S(=O)(=O)N2CCCCCC2)CC1 (stereo unspecified),45%
COc1ccc(C(=O)C(OC(=O)CNC(=O)c2ccco2)c2ccccc2)cc1 (stereo unspecified),14%
O[C@@](CCN1CCCCC1)(c1ccccc1)[C@@H]1C[C@H]2C=C[C@@H]1C2,7%[12.8 µM]
COC(=O)CSc1nnc(-c2ccco2)n1-c1ccc(C)cc1,23%
CCOC(=O)C(NC(C)=O)(Nc1ccc(S(=O)(=O)Nc2cc(C)nc(C)n2)cc1)C(F)(F)F (stereo unspecified),12%
NC(=O)c1nsc(C(=O)N(CC(=O)NCc2ccc3c(c2)OCO3)C2CCCCC2)c1N,3%
O=C(CSc1nc(-c2ccco2)cc(C(F)(F)F)n1)Nc1ccc2c(c1)OCO2,-1%
COc1ccc(NS(=O)(=O)c2ccc(OC)c(OC)c2)cc1OC,-2%
Nc1ncnc2c1ncn2C1CCC(CO)C(O)C1 (stereo unspecified),0%
O=C(CN1CCN(c2ccccc2)CC1)Nc1nccs1,8%
O=C(NCc1ccc(Cl)cc1)c1cc2c(nc3sccn32)s1,?
Clc1ccccc1Nc1ncnc2c1nnn2Cc1ccccc1,-7%
Oc1ccc(CNc2ccc(F)cc2)c2cccnc12,10µM*
COc1ccc(Cl)cc1NC(=O)C1CC(=O)N(c2ccc(F)cc2)C1 (stereo unspecified),27%
O=C(Nc1ccon1)C(Sc1ccccc1)c1ccccc1 (stereo unspecified),-13%
CCCOc1ccc(Cc2nc(N)nc(N)n2)cc1,1%
ONC=Nc1cccc2nonc12,-11%
COCCN(CCOC)c1nc(C)nc2c1nc(-c1ccccc1)n2CCN(C)C,65%
COc1ccc(OCCCON2C(=O)c3ccccc3C2=O)cc1,6%
COc1ccc(CNC(=O)Nc2cccs2)cc1OC,-7%
CCCCCCCC/C=C\CCCCCCCC(=O)N[C@@H](CO)Cc1ccc(O)cc1,17%
COCCn1c(CN2CCN(c3ccccc3)CC2)nc2c1c(=O)n(C)c(=O)n2C,87%
COc1cccc(-c2cncnc2NCc2ccccc2OC)c1,52%
CN(C)S(=O)(=O)c1cccc(C(=O)N(Cc2ccc(F)cc2)Cc2ccco2)c1,49%
CC(=O)N1CC(=O)Nc2ccc(Cl)cc2C1c1ccc(F)cc1 (stereo unspecified),3%
NC(=O)COC(=O)c1ccc(Oc2ccccc2)cc1,13%
# (continued)
SMILES,AmpC inh no det
CC(=O)N(CC1CCCO1)c1nnc(-c2cnccn2)s1 (stereo unspecified),9%
COCCNC(=O)Cn1c(=O)n(Cc2ccc(C(=O)NCc3ccco3)cc2)c(=O)c2ccccc21,54%
NS(=O)(=O)c1ccc(CCNC(=O)CCCC2=NS(=O)(=O)c3ccccc3N2)cc1,-16%
Cc1ccc(C)c(/C(O)=C2\C(=O)C(=O)N(Cc3cccnc3)C2c2cccnc2)c1 (stereo unspecified),-2%
Cc1cc(NC(=O)c2ccc3c(c2)C(=O)N(CCC(C)C)C3=O)no1,-11%
O=C(CSc1nc(-c2ccco2)cc(C(F)(F)F)n1)Nc1ccc(C(=O)N2CCCCC2)cc1,85%
O=C(Nc1cccc(F)c1)N1CC2(CCN(C(=O)c3ccco3)CC2)C1,11%
CCOc1ccc(CC(=O)Nc2c(C(N)=O)oc3ccccc23)cc1OCC,37%
CCn1c(=O)c(C(=O)NCc2ccccn2)c(O)c2ccccc21,129%
COc1cccc(-c2cc(C(=O)NCc3ccco3)no2)c1,2%
Cc1ccc(OC(=O)c2cccc(C(=O)Oc3ccc(C)cn3)n2)nc1,14%
COc1ccc(-n2c(COc3ccccc3)nnc2SCc2ccc(C#N)cc2)cc1,55%
O=S(=O)(c1cccs1)N1CN(CC2CCCO2)c2nc3ccccc3nc21 (stereo unspecified),40%
CCOCCn1cnc2sc(C(=O)Nc3nc(C)c(C(=O)OCC)s3)c(C)c2c1=O,91%
O=C(O)c1cc(-c2ccc(-c3ccccc3)cc2)nc2cc3ccccc3cc12,-3%[5.75 µM]
COc1cc2c(cc1OC)CN(C(=O)CSc1nnc3scc(-c4ccccc4)n13)CC2,74%
O=C(Nc1cccc(C(F)(F)F)c1)c1cccnc1N1CCCC1,38%
Cc1ccccc1N1C(=O)N(c2cccc(C(F)(F)F)c2)C2CS(=O)(=O)CC21 (stereo unspecified),-2%
Cc1oc(-c2ccccc2F)nc1CS(=O)(=O)CC(=O)N1CCOCC1,12%
Cc1ccc(C=Nc2ccc(N(C)C)cc2)o1,24%

# The closing two compounds of the section above come first, to join the parts:
SMILES,AmpC inh no det
Cc1oc(-c2ccccc2F)nc1CS(=O)(=O)CC(=O)N1CCOCC1,12%
Cc1ccc(C=Nc2ccc(N(C)C)cc2)o1,24%
COc1cccc(-c2nnc(NC(=O)c3ccc(S(=O)(=O)N4CCOCC4)cc3)o2)c1,1%
Nc1[nH]c(=S)[nH]c(=O)c1-c1ccccc1,0%
O=C(CCSc1ccccc1)NCCN1CCOCC1,8%
CCOc1ccc(N(CC(=O)NC(C)(C)C)S(=O)(=O)c2c(C)noc2C)cc1,57%
CN1CCN(c2ncc3nc(-c4ccc(Cl)cc4)c(=O)n(C4CC4)c3n2)CC1,112%
O=S(=O)(c1ccccc1)N1CCN(C2CCCCCCC2)CC1,52%
CCOC(=O)N1CCN(C(=O)COc2cc(=O)n(CC)c3ccccc23)CC1,34%
Cc1ccc(S(=O)(=O)N[C@H](C(=O)N2CCC(C(=O)NCC(=O)O)CC2)C(C)C)cc1,-3%
COc1ccccc1C1NC(=O)NC(C)=C1C(C)=O (stereo unspecified),-5%
O=C1c2ccccc2C(=O)N1CCN1CCOCC1,-6%
CC(C)NS(=O)(=O)c1ccc(OCC(=O)N2CCN(Cc3ccccc3)CC2)cc1,45%
CCC(SC1=Nc2ccccc2C2=NC(CC(C)C)C(=O)N12)C(=O)Nc1ccc2c(c1)OCO2 (stereo unspecified),32%
CCn1c(SCC(=O)Nc2cc(C)on2)nnc1-c1ccc(S(=O)(=O)N2CCCC2)cc1,42%
Cc1cccc(Cn2cnc3c(nnn3Cc3ccccc3F)c2=O)c1,5%
O=C(Nc1ccccc1C(=O)N1CCCCC1)C1CCCCC1,13%
CCOC(=O)N1CCC(N2CCN(S(=O)(=O)CC)CC2)CC1,-2%
O=C(c1ccc(Br)cc1)C1CCc2occc2C1=O (stereo unspecified),-4%
CCOc1ccc(NC(=O)CSc2nnc(-c3ccccn3)n2N)cc1,34%
COCCOC(=O)C1=C(C)NC(=O)NC1c1c(OC)ncnc1OC (stereo unspecified),-10%
Cc1c(C(=O)N2CCOCC2)sc(NC(=O)c2ccc3c(c2)OCO3)c1C#N,11%
CC(=O)OCC1C2CC[C@H]3C(OCc4ccc(F)cc4C(F)(F)F)OC[C@]4(C)[C@H]3C2=C(CN4C(=O)OC(C)(C)C)[C@H](C)C1COC(C)=O (stereo partly specified),88%
O=C(CN1CCN(c2ccccn2)CC1)Nc1cc(C(F)(F)F)ccc1Cl,64%
CC(=O)c1ccc(N2CCN(C(=O)CCCn3c(=S)[nH]c4cc5c(cc4c3=O)OCO5)CC2)cc1,0%
COC(=O)c1ccccc1NC(=O)NCc1ccco1,-8%
NC(N)=NCCN=C(N)N,1%[5.75 µM]
CCCCn1c(=O)n(CC(=O)Nc2ccc(C)c(Cl)c2)c(=O)c2c1ncn2Cc1ccco1,6%
Cc1oc(-c2cccs2)nc1CS(=O)CC(=O)NCCCN1CC(C)CC(C)C1 (stereo unspecified),22%
Nc1c(C(=O)NC2CCCC2)c2nc3ccccc3nc2n1CC1CCCO1 (stereo unspecified),130%
CCOC(=O)c1[nH]nc2c1C(=O)N(Cc1ccccc1)C2=O,-17%
Cc1ncsc1CCSc1n[nH]c(=O)n1-c1ccccc1,-5%
CSc1nc2ccc(NS(=O)(=O)c3ccc4c(c3)OCCO4)cc2s1,-19%
c1cncc(-c2nc(-c3ccco3)cs2)c1,-1%
CCCC(C(=O)NCc1ccco1)N(C(=O)CNS(=O)(=O)c1ccc(Cl)cc1)C1CCCC1 (stereo unspecified),11%
O=C(Cn1nnc(-c2ccccc2)n1)c1ccccc1,6%
CCn1c(NC(=O)c2cccs2)nc2ccccc21,0%
COc1cc(NC(=O)c2cc3sccc3n2C)cc(OC)c1,7%
CCC(C)[C@H](N)c1nnc(SCc2cccc(F)c2)o1 (stereo partly specified),21%
CCn1nnnc1SCCSc1nnnn1CC,-4%
COc1ccccc1CNC(=O)CSc1nc2nc(C)cc(C)n2n1,-7%
CC(OC(=O)c1cccs1)C(=O)NCc1cccs1 (stereo unspecified),-8%
CCCC(=O)C1C(=O)NC(=O)NC1=O,0%
CC[C@@H]1OC(=O)[C@H](C)[C@H](O[C@@H]2C[C@](C)(OC)[C@H](O)[C@H](C)O2)[C@H](C)[C@H](O[C@@H]2O[C@@H](C)C[C@@H](N(C)C)[C@@H]2O)[C@](C)(O)C[C@H](C)[C@@H]2N[C@H](COCCOC)O[C@H]([C@@H]2C)[C@]1(C)O,53%[12.8 µM]
COc1cccc(CNC2CN3CCC2CC3)c1OC (stereo unspecified),-9%

# Rewritten with bars between the fields: 17 of the compounds above.
SMILES | AmpC inh no det
CC(=O)OCC1C2CC[C@H]3C(OCc4ccc(F)cc4C(F)(F)F)OC[C@]4(C)[C@H]3C2=C(CN4C(=O)OC(C)(C)C)[C@H](C)C1COC(C)=O (stereo partly specified) | 88%
O=C(CN1CCN(c2ccccn2)CC1)Nc1cc(C(F)(F)F)ccc1Cl | 64%
CC(=O)c1ccc(N2CCN(C(=O)CCCn3c(=S)[nH]c4cc5c(cc4c3=O)OCO5)CC2)cc1 | 0%
COC(=O)c1ccccc1NC(=O)NCc1ccco1 | -8%
NC(N)=NCCN=C(N)N | 1%[5.75 µM]
CCCCn1c(=O)n(CC(=O)Nc2ccc(C)c(Cl)c2)c(=O)c2c1ncn2Cc1ccco1 | 6%
Cc1oc(-c2cccs2)nc1CS(=O)CC(=O)NCCCN1CC(C)CC(C)C1 (stereo unspecified) | 22%
Nc1c(C(=O)NC2CCCC2)c2nc3ccccc3nc2n1CC1CCCO1 (stereo unspecified) | 130%
CCOC(=O)c1[nH]nc2c1C(=O)N(Cc1ccccc1)C2=O | -17%
Cc1ncsc1CCSc1n[nH]c(=O)n1-c1ccccc1 | -5%
CSc1nc2ccc(NS(=O)(=O)c3ccc4c(c3)OCCO4)cc2s1 | -19%
c1cncc(-c2nc(-c3ccco3)cs2)c1 | -1%
CCCC(C(=O)NCc1ccco1)N(C(=O)CNS(=O)(=O)c1ccc(Cl)cc1)C1CCCC1 (stereo unspecified) | 11%
O=C(Cn1nnc(-c2ccccc2)n1)c1ccccc1 | 6%
CCn1c(NC(=O)c2cccs2)nc2ccccc21 | 0%
COc1cc(NC(=O)c2cc3sccc3n2C)cc(OC)c1 | 7%
CCC(C)[C@H](N)c1nnc(SCc2cccc(F)c2)o1 (stereo partly specified) | 21%

# High-throughput results: PubChem BioAssay, National Center for Advancing Translational Sciences (NCATS)
